# High-throughput results: PubChem, several laboratories
# Arbovirus inh – arbovirus infection inhibition | arbovirus infection cell-based antiviral screen | inhibition, % at 10 µM | hit rate 0.37% among 200,000 | AID 1251;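 active = inhibition from about 30%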;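 also: bluetongue infection of BSR cells; cell survival read as ATP light after 72 h; 0% = infected wells without compound and 100% = uninfected wells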
# Mtb bLac sens – beta-lactam sensitization of Mtb H37Rv; hit rate 0.27% among 330,000; inhibition, % at 25 µM; M. tuberculosis H37Rv growth with meropenem, percent inhibition; hits of this screen are not shown here; AID 434955;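 active = about 74% or more and at least 40 points above the plate without the antibiotic, then above 30% in a dose series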;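 also: growth measured after seven days incubation then overnight dye step; 0% = bacteria only wells and 100% = bacteria with antibiotic; twin plates without the antibiotic show which effects depend on it; some results filed as inactive read as strong as hits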
# RecA splice inh – inhibitors of M. tuberculosis RecA intein splicing. P9WHJ3. cell-free RecA intein splicing, fluorescence. inhibition, %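 (about 9 µM by stock and volumes)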. hit rate 0.75% among 290,000; in the data active = inhibition above about 30%;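 also: 0% = vehicle wells and 100% = reference inhibitor control wells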
# Target sequence (P9WHJ3 whole entry, looked up, canonical isoform): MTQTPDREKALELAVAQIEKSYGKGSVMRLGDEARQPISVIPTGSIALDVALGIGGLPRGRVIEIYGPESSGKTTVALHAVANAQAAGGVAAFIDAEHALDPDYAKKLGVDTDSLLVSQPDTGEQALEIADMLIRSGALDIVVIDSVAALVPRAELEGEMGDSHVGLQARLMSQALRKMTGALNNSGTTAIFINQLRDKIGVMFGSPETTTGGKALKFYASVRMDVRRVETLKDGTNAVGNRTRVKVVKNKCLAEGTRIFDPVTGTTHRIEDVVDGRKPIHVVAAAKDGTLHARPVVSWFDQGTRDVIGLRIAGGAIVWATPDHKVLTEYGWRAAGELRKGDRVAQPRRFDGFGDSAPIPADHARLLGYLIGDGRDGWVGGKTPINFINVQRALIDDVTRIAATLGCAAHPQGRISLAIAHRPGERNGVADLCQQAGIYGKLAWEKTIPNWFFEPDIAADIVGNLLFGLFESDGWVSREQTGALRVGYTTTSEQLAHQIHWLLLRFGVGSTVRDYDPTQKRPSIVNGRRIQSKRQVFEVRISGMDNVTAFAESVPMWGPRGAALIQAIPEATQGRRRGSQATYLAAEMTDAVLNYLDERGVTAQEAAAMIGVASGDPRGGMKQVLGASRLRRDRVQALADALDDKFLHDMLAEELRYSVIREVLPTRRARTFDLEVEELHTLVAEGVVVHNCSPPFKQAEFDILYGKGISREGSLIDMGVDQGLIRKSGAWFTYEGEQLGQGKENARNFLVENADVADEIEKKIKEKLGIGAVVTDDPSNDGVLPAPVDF
# Mtb growth – M. tuberculosis H37Rv growth inhibitors, H37Rv strain (AID 1626) | hit rate 0.95% among 220,000 | M. tuberculosis H37Rv growth inhibition; higher % means a stronger effect | inhibition, % at 10 µM; hits with a dose series show IC50 in µM;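 active = confirmed in a dose series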;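 also: bacteria incubated seven days before Alamar blue readout; 0% = bacteria only wells and 100% = bacteria with antibiotic wells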
# YopH inh – blocks Yersinia enterocolitica YopH tyrosine phosphatase; inhibition, %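 (about 10 µM by stock and volumes)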; hit rate 0.16% among 140,000; fluorescence Ex485/Em525;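 active = inhibition of 50% or more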;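 also: controls were vehicle for no effect and minimum signal wells for full effect; inactives centre near -20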
# Arbovirus inh repeat – further read-out of Arbovirus inh, marked with its call; inhibition, %; measured here: 10K subset replicate screen; many hits read low in the repeat;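 first of two repeat runs on a subset; 0% = infected and 100% = uninfected wells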
# Numbers without * were called inactive; . = not tested or not shown. A portion of the library (hit frequency here may not be typical).
SMILES,Arbovirus inh,Mtb bLac sens,RecA splice inh,Mtb growth,YopH inh,others
CCc1sc(C(=O)NC2CCN(C)CC2)cc1Br,-26,-5,1.3,0%,24,
COc1ccccc1N1CCN(C(=O)c2ccc3c(c2)CCN3S(C)(=O)=O)CC1,.,-6,1.2,.,.,
Cc1ccc(CS(=O)Cc2ccc(C(=O)NCc3ccc4c(c3)OCO4)o2)cc1 (centres undefined),.,0,-2.7,.,.,
Nc1nonc1-n1nnc(C(=O)N/N=C/C=C/c2ccccc2)c1CSC1=NCCS1,.,-1,.,-6%,.,
Cc1ccc(-n2nnnc2C(=Cc2ccc(N(C)C)cc2)c2nnnn2-c2ccc(C)cc2)cc1,-9,11,-6.4,.,-8,
CC(C)CCNC(=O)CN(Cc1cccs1)C(=O)CCC(=O)Nc1nccs1,-5,10,0.3,5%,-47,
O=C(O)c1cc(-n2nnnc2SCc2ccc([N+](=O)[O-])cc2)ccc1Cl,.,1,-0.1,.,.,
O=C(NCCN1CCOCC1)c1cc([N+](=O)[O-])cc([N+](=O)[O-])c1,.,100,-2.1,.,.,
CCc1ccc(NC(=O)CCNC(=O)Cn2ccc3ccccc3c2=O)cc1,.,1,1.2,.,.,
COc1ccccc1NS(=O)(=O)c1ccc(N/N=C/c2ccccc2OCC(=O)O)c([N+](=O)[O-])c1,9,-1,-1.7,-4%,.,
CC(C)=CCSc1nnc([C@@H](N)Cc2c[nH]c3ccccc23)o1,8,-10,0.9,2%,29,
COc1ccc(NC(=O)C2CC2)cc1NS(=O)(=O)c1ccc(F)cc1,0,-4,-1.1,-1%,-5,
N/C(CN1CCCC1=O)=N\OC(=O)c1ccc(Cl)c(Cl)c1,2,-3,1.8,-4%,-23,
O=C(Nc1cccc(O)c1)c1cc(-c2cccs2)on1,.,0,3.2,.,.,
COC(=O)Cn1c(=NC(=O)CSCC(=O)NC2CCCCC2)sc2cc(OC)ccc21,-6,7,-0.3,1%,-24,

# In the list so far, three have a thiophene ring, fused or not:
SMILES,Arbovirus inh,Mtb bLac sens,RecA splice inh,Mtb growth,YopH inh,others
CCc1sc(C(=O)NC2CCN(C)CC2)cc1Br,-26,-5,1.3,0%,24,
CC(C)CCNC(=O)CN(Cc1cccs1)C(=O)CCC(=O)Nc1nccs1,-5,10,0.3,5%,-47,
O=C(Nc1cccc(O)c1)c1cc(-c2cccs2)on1,.,0,3.2,.,.,

# The listing picks up, starting 5 compounds before the break.
SMILES,Arbovirus inh,Mtb bLac sens,RecA splice inh,Mtb growth,YopH inh,others
CC(C)=CCSc1nnc([C@@H](N)Cc2c[nH]c3ccccc23)o1,8,-10,0.9,2%,29,
COc1ccc(NC(=O)C2CC2)cc1NS(=O)(=O)c1ccc(F)cc1,0,-4,-1.1,-1%,-5,
N/C(CN1CCCC1=O)=N\OC(=O)c1ccc(Cl)c(Cl)c1,2,-3,1.8,-4%,-23,
O=C(Nc1cccc(O)c1)c1cc(-c2cccs2)on1,.,0,3.2,.,.,
COC(=O)Cn1c(=NC(=O)CSCC(=O)NC2CCCCC2)sc2cc(OC)ccc21,-6,7,-0.3,1%,-24,
O=C(c1ccccc1)N1CCN(C2CC(=O)N(CCc3ccccc3)C2=O)CC1 (centres undefined),12,-4,1.1,-8%,-8,Arbovirus inh repeat=5
CCN(C(=O)C1CCCN1S(=O)(=O)c1cccc2nsnc12)c1ccccc1 (centres undefined),.,-2,-1.5,3%,.,
Brc1ccccc1-c1nnc(SCc2nc3ccccc3s2)o1,34*,9,9.0,36%,-20,
Cn1c(COc2ccc(Cl)cc2Cl)nnc1SCC(=O)NCC1CCCO1 (centres undefined),.,5,-4.7,.,.,
CN(CC(=O)Nc1c(Cl)cccc1Cl)C(=O)CNC(=O)c1ccc2c(c1)OCO2,.,-3,-1.2,.,.,
COC(=O)c1c(S(=O)(=O)N2CCOCC2)c(C)n(C)c1C,.,-16,-1.7,.,.,
Cc1cccc(N2C(=O)CC(c3ccc(F)cc3)C3=C2COC3=O)c1 (centres undefined),-2,-1,-2.1,-6%,.,
CCCN1C(=O)c2ccccc2NC1c1cc(OC)c(OC)c(OC)c1 (centres undefined),6,-8,1.0,.,-20,
Cc1ccc(CCNC(=O)C2CCC(=O)N2CCc2ccccc2)cc1 (centres undefined),.,-9,-1.9,.,.,
Cc1ccc(OCCN2C(=O)C(=O)c3cccc(C)c32)cc1,-14,-7,-1.8,-1%,.,
CC(C)c1ccc(NC2CCCN(C(=O)CN3CCOC3=O)C2)cc1 (centres undefined),.,-12,-0.9,.,.,
COC(=O)C1=C(C)N(c2ccc(OC)c(OC)c2)C(=O)/C1=C\c1cccs1,-1,-9,-0.3,5%,.,
CCOC(=O)c1c(N2C(=O)Nc3ccccc3N2O)sc2c1CCCC2,1,-7,1.1,0%,-24,
O=C(Nc1cccc(C(=O)N2CCCc3ccccc32)c1)c1ccccc1,.,-1,3.7,.,.,
CC(C)c1[nH]nc2c1C(c1cccc(OC(=O)N3CCOCC3)c1)C(C#N)=C(N)O2 (centres undefined),-1,-2,45*,-2%,6,

# 2 records picked at random from the list so far, as already listed:
SMILES,Arbovirus inh,Mtb bLac sens,RecA splice inh,Mtb growth,YopH inh,others
Brc1ccccc1-c1nnc(SCc2nc3ccccc3s2)o1,34*,9,9.0,36%,-20,
Cc1ccc(CCNC(=O)C2CCC(=O)N2CCc2ccccc2)cc1 (centres undefined),.,-9,-1.9,.,.,

# (listing goes on)
SMILES,Arbovirus inh,Mtb bLac sens,RecA splice inh,Mtb growth,YopH inh,others
CC(C)C(NS(=O)(=O)c1cccc(C(F)(F)F)c1)C(=O)N1CCc2ccccc2C1 (centres undefined),.,-2,0.7,.,.,
CCOC(=O)c1oc2ccccc2c1NC(=O)COC,-5,-8,-1.0,5%,-13,
COc1ccc(/C=C2\SC(=S)NC2=O)cc1OS(=O)(=O)c1ccc(NC(C)=O)cc1,11,.,4.8,-4%,.,
O=[N+]([O-])c1cc(S(=O)(=O)C(F)(F)F)ccc1NCC1CCCO1 (centres undefined),.,4,7.2,.,.,
CCOC(=O)Cn1c(=O)c2c(nc(N3CCOCC3)n2C)n(C)c1=O,10,10,0.3,3%,7,
CCOc1ccccc1NC(=O)c1cc(-c2ccncc2)nc2c(Cl)cccc12,6,.,0.5,5%,.,
C=CCOc1c(CNc2ccc3[nH]c(=O)[nH]c3c2)cccc1OC,-6,9,-0.5,-5%,.,
CCOC(=O)c1c(C)nc2ccccn12,-3,-10,.,-10%,-27,
COc1ccccc1OCc1n[nH]c(=S)n1Cc1ccccc1,10,-2,1.1,-2%,.,
NC(=O)CC(NC(=O)Cc1cccc2ccccc12)c1ccc(NC2CCCCCC2)c([N+](=O)[O-])c1 (centres undefined),.,-4,1.4,-5%,.,
Nc1nnc(SCC(=O)NC23CC4CC(CC(C4)C2)C3)s1,7,-22,-1.9,0%,-8,
C=CCN1C(=O)/C(=C2/Sc3ccccc3N2C)SC1=Nc1c(C)n[nH]c1C,4,-11,2.8,-12%,22,
CC1(CC(=O)NNC(=O)Nc2ccccc2)OCCCO1,0,-4,23,1%,.,
CCN1CCN(C(=O)C2CCC(=O)N(Cc3cccc(C(F)(F)F)c3)C2)CC1 (centres undefined),.,-2,-0.6,.,.,
NC(=O)c1ccccc1NC(=O)CN1CCCCCC1,.,-1,-1.4,.,.,
CCCc1cc(C(N)=O)c(NC(=O)c2cc(C)on2)s1,1,-1,-1.6,-2%,-26,
COc1ccc2[nH]c(=O)c(CN(C(=O)c3ccccn3)c3ccccc3)cc2c1,8,-3,3.5,-2%,-28,
CC(C)OP(=O)(OC(C)C)C(O)c1ccc(Br)cc1 (centres undefined),-1,0,1.8,-5%,-7,
Cc1cc(C)c2oc(=O)cc(CN3CCC(C)CC3)c2c1,.,7,-1.6,.,.,
CCc1cccc(NC(=O)C(NC(=O)C2CCCCC2)C(C)C)c1 (centres undefined),1,-7,-9.1,-6%,.,
CCCCOc1ccc(C(=O)CCN2CCCCC2)cc1,-16,4,0.6,2%,-37,
COc1ccc(NC(=O)COC(=O)CNC(=O)C2CCCCC2)cc1,3,1,-1.0,0%,.,
CC1CN(S(=O)(=O)c2cccc(C(=O)OC/C(O)=C(\C#N)c3nc4ccccc4[nH]3)c2)CC(C)O1 (centres undefined),-16,22,-2.7,5%,-6,
Fc1ccc(-c2nnc(SCc3cccnc3)o2)cc1,1,4,2.1,6%,.,
COc1ccc(N(C(=O)CNC(=O)c2ccco2)C(C(=O)NCC2CCCO2)c2ccc(OC)c(OC)c2)cc1 (centres undefined),.,-6,-3.2,.,.,
OC1(c2ccc(Cl)cc2)CCN(Cc2nc(-c3cnccn3)no2)CC1,2,-3,6.7,2%,.,
Oc1ccc(C=Nc2ccccc2-c2nc3ccccc3[nH]2)c(O)c1,0,1,-12,9%,-28,
Nc1c(Br)cc2oc(-c3ccccc3)nc2c1Br,-7,9,-1.2,-4%,-32,
O=C(NCc1ccc2c(c1)OCO2)c1cccc(S(=O)(=O)N2CCCC2)c1,.,-4,0.3,.,.,
COc1ccc(C2CC(=O)C(C=NCCO)=C(O)C2)cc1 (centres undefined),.,-3,13,.,.,
CCOC(=O)C(C(=O)OCC)[C@@H]1CS(=O)(=O)C[C@H]1C(C(=O)OCC)C(=O)OCC,4,-4,-3.8,-1%,-25,
COc1cc(C2C(C(=O)c3ccc(C)o3)=C(O)C(=O)N2c2cc(C)on2)ccc1O (centres undefined),0,-1,-4.5,2%,-44,
COc1ccc2oc(=O)c(C(=O)N3CCN(C(=O)c4ccco4)CC3)cc2c1,.,-7,-19,.,.,
CCOC(=O)C1=C(O)/C(=C/N(C)C)N=C1C,-1,2,-1.2,-4%,-29,Arbovirus inh repeat=4
COC(=O)c1ccncc1N,10,-8,-0.3,-2%,.,
Cc1ccc(C(=O)NCC(=O)Nc2cc(C)ccn2)cc1,.,-12,-3.5,.,.,
O=C(O)c1cc(C(F)(F)F)nc2c(C(F)(F)F)cccc12,6,4,-2.2,1%,.,
O=C(NCc1ccccc1)N(Cc1cc2cc3c(cc2[nH]c1=O)OCO3)CC1CCCO1 (centres undefined),-11,-7,-0.5,1%,-5,
CC(=O)c1cc2c(cc1NC(=O)CN1CCN(c3cccc(C(F)(F)F)c3)CC1)OCO2,-13,7,1.7,-3%,8,
CCOc1ccccc1NC(=O)CSc1nnc(-c2cnccn2)n1CC,-3,2,1.8,1%,-14,
C=CCn1c(SCC(=O)N2CCOCC2)nnc1C(C)NC(=O)c1ccccc1 (centres undefined),.,-16,0.9,.,.,
COc1ccc(-c2cc(C(=O)Nc3cc(S(N)(=O)=O)ccc3C)c3ccccc3n2)cc1OC,.,-6,-1.1,.,.,
O=S(=O)(NCC(c1ccco1)N1CCN(c2ccccc2F)CC1)c1ccc(F)cc1 (centres undefined),-1,1,-0.3,5%,-30,
O=C(Nc1ccccc1Sc1ccccc1)c1ccc(F)cc1,15,12,14,16%,-7,
CC(C)(C)c1nnc(N/N=C/c2ccccc2O)n(N)c1=O,-34,7,-6.6,0%,-58,
COc1cc(NC(=S)NCC2CCCO2)c(OC)cc1Cl (centres undefined),-6,7,.,0%,.,
O=S(=O)(c1ccc2c(c1)OCCO2)N1CCc2ccccc21,-1,-7,0.9,7%,.,
O=C(Cn1ccc2ccccc2c1=O)NCC1COc2ccccc2O1 (centres undefined),8,4,0.6,-10%,-23,
CCn1c(C(c2ccccc2)c2ccccc2)n[nH]c1=S,5,5,2.2,-5%,-26,
O=C1CC(c2ccccc2)C(C(=O)O)N1 (centres undefined),3,-9,0.2,-4%,-10,Arbovirus inh repeat=3
COc1cc(NC(=O)c2ccccc2[N+](=O)[O-])c(C(=O)O)cc1OC,1,-3,-1.6,2%,.,
CC1CC(C)CN(c2ncnc3c2cnn3Cc2ccc(Cl)cc2)C1 (centres undefined),-8,95,-0.7,-4%,-9,
OCCCNc1c2c(nc3cc(-c4ccc(Cl)cc4)nn13)CCC2,-3,8,2.9,1%,.,
Cc1cc(C(=O)OCC(=O)Nc2cc(C)on2)c2ccccc2n1,-3,-5,2.6,-3%,-23,
Cc1ccc(S(=O)(=O)n2nc(C)c(S(=O)(=O)N3CCCCC3)c2C)cc1,.,-1,1.5,.,.,
O=C1C(=Cc2cccn2-c2ccccc2)C(=O)c2ccccc21,-11,-4,-2.9,0%,39,
Cc1ccc(S(=O)(=O)N2CCOCC2)cc1NC(=O)COc1ncnc2ccccc12,0,7,0.0,1%,-38,
CCCCc1c(C)nc2ccc(C(=O)OCC)cc2c1Cl,3,69,3.7,-4%,-12,
O=[N+]([O-])c1cc(S(=O)(=O)N2CCCC2)ccc1O,2,21,2.0,-10%,-42,
C=CCOc1ccc(/C=N/NC(=O)c2cc3c(OC)cc(OC)cc3[nH]2)cc1,.,6,3.3,.,.,
